# PABP polyA inh – blocks human PABP binding to poly(A) RNA; P11940; fluorescence polarization; inhibition, % at 35 µM; 290,000 tested, 1% active; AID 2014;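 active = 50% or more with normal probe brightness, or confirmed in later tests; about a fifth of its hits are not listed in these tables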;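 note: calls also rest on retests at 20 µM and on dose response follow-up; controls were probe without protein and protein plus probe with vehicle; some compounds called inactive have numbers as strong as hits; many hits fall short of the cut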
# Target sequence (P11940 whole entry, looked up): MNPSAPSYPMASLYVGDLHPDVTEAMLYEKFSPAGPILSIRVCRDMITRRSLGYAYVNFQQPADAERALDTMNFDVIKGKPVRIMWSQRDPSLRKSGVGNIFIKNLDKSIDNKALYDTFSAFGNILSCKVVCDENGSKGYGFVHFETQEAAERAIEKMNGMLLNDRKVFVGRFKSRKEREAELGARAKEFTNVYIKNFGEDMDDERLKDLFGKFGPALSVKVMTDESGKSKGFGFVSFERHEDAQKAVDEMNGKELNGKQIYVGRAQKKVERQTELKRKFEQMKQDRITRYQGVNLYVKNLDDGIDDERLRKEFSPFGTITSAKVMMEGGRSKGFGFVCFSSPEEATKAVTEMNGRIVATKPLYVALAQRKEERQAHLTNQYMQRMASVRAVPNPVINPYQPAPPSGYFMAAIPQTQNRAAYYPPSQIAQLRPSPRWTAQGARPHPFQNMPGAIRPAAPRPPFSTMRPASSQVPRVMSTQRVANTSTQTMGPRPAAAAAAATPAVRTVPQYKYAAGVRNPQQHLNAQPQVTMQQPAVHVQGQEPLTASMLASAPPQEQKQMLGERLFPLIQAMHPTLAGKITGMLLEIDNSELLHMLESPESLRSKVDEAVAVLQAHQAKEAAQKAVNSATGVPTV
# Rce1 inhib – yeast Ras-converting enzyme inhibition; Q03530; yeast membranes, quenched prenylated peptide cleavage fluorescence; calls only; 290,000 tested, 0.27% active; AID 2563;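 active = fall in fluorescence gain of 50% or more versus controls, with final raw signal at or below 3038400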;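 note: plate controls were neutral control wells for no effect and wells lacking membranes for full effect; tested at 10 µM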
# Target sequence (Q03530 whole entry, looked up): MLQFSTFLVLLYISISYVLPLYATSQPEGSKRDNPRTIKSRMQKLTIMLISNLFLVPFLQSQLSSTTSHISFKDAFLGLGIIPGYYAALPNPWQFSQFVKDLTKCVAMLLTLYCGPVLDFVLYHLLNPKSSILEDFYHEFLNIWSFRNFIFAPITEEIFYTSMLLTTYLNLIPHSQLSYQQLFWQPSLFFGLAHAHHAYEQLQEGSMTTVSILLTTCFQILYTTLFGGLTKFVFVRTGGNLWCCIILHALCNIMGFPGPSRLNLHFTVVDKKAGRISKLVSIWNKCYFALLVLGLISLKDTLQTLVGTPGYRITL
# eIF4H inh – inhibitors of RNA binding by human eIF4H; Q15056; eIF4H fluorescence polarization binding assay; inhibition, % at 35 µM; 290,000 tested, 0.94% active;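 active = 50% or more with normal probe brightness, or confirmed in later tests; about a fifth of its hits are not listed in these tables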;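 note: calls also rest on retests at 20 µM and on dose response follow-up; 0% = protein and probe with vehicle and 100% = probe without protein; strong numbers were not always called active; many hits fall short of the cut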
# CSC inhib – blocks cancer stem cells. 300,000 tested, 1.1% active. cancer stem cell-like cells viability, luminescence. inhibition, % at 7.5 µM. AID 2717;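 active = mean at 75% or more and at least half the replicates too; tested in HMLE shEcad cells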;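 note: 0% = median of negative and 100% = median of positive control wells; the first replicate is given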
# HIV Env fusion – blocks HIV Env-driven cell-cell fusion; inhibition, % at 12.3 µM; AID 651610; HeLa-JRFL Env/CEM21 cell fusion, luciferase; 360,000 tested, 1.1% active;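 active = mean replicate inhibition score of at least 50 and every replicate individually at or above 50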;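 note: 0% = plate neutral controls and 100% = maraviroc near 300 nM; one replicate is shown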
# MT1-MMP act inh – MT1-MMP (human) activation inhibition | 360,000 tested, 0.061% active | HT1080 RFP-PRO-GFP cells, GFP/RFP ratio fluorescence, overnight; percent of plate control window, DMSO zero | GFP/RFP ratio change, % at 20 µM | P50281;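 active = GFP/RFP ratio change of at least 30% with cell ATP level not reduced by more than half and red fluorescence within 50% of control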; note: strong numbers were not always called active
#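 Assay system – RFP-PRO-GFP reporter HT1080 cells · Compound dosing – single dose of 20 µM compound, 1% DMSO final · Incubation – overnight compound exposure at 37 °C · Measure – GFP/RFP fluorescence ratio · Benchmarks – DMSO wells and RFP-L50D-GFP cells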
# Yeast UUG start – modulators of start codon recognition fidelity in yeast. 350,000 tested, 0.13% active. activity score, % at 18.7 µM. S. cerevisiae UUG-firefly luciferase reporter, luminescence/redox ratio;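 active = replicate mean at a twofold rise or more, about +100% in these data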;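 note: firefly luciferase made from a UUG start codon reports start codon fidelity; reporter light over untreated wells divided by growth signal over untreated wells; some hits fall short of that in this replicate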
# MT1-MMP act inh RFP – second read-out of MT1-MMP act inh, no call of its own (marks repeat the call); RFP signal change, %; measured here: RFP expression control read;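 0 = vehicle wells; hits needed this value within 50% of zero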
# Active calls of the source: *; i = inactive; nt = no result given; & = joins results of further samples.
SMILES,PABP polyA inh,Rce1 inhib,eIF4H inh,CSC inhib,HIV Env fusion,MT1-MMP act inh,MT1-MMP act inh RFP,Yeast UUG start
COC(Cn1c(C)c(C(C)=O)c(C(C)=O)c1C)OC,-1,i,1,-12,nt,1,1,-18
COc1ccc(C(=O)NCCNc2ccc([N+](=O)[O-])cc2)cc1OC,6,nt,-1,-4,4,3,-4,-7
CCC(C)NC(=O)COCc1cc(-c2ccc3c(c2)OCO3)on1 (stereo not given),-2,i,-5,-13,12,3,5,nt
COC(=O)c1sc2nc(CN3CCN(c4ccc(OC)cc4)CC3)[nH]c(=O)c2c1C,3,i,-8,1,9,-4,9,nt
COc1cc2nc(NC(=O)c3ccco3)sc(=O)c2cc1OC,16,i,12,5,43,4,8,-7
Cc1ccnc(NC(=O)c2ccc([N+](=O)[O-])o2)c1,11,i,20,13,-80,3,2,-5
CC(C)c1ccc(OCCCN2CCCC2)cc1,2,i,4,-9,6,-2,-1,14
COc1ccc(CNC(=S)Nc2cc(OC)ccc2OC)cc1,3,i,-2,-9,-11,4,4,nt
CCC(C)(C)NC(=O)CN(C(=O)C(=O)Nc1ccc2c(c1)OCCO2)C1CC1,-8,i,-22,7,-4,2,5,-6
Cc1ccc(NC(=S)NC(=O)c2ccc(-c3ccccc3)cc2)cc1,nt,i,nt,-3,nt,2,0,-10
CCC(=O)Nc1c2c(nn1-c1ccc(OC)cc1)CS(=O)C2 (stereo not given),2,i,-10,-20,-2,1,3,-17
COc1ccc(C(=O)CSc2nc3[nH]ncc3c(=O)[nH]2)cc1,7,i,0,nt,-8,3,6,-5
O=C(Nc1ccc(F)cc1F)N1CCN(C/C=C/c2ccccc2)CC1,-4,i,2,-7,4,0,-4,-24
O=C(CCC(=O)Nc1ccccc1Cl)N/N=C/c1ccccc1,-5,i,-1,13,13,5,6,nt
CCNC(=O)C1(C)CCCN(C(=O)c2cccnc2Oc2ccccc2)C1 (stereo not given),nt,nt,nt,nt,-7,-1,0,-11

# Single records, from the list above.
# Entry for `CCC(C)(C)NC(=O)CN(C(=O)C(=O)Nc1ccc2c(c1)OCCO2)C1CC1` = PABP polyA inh = -8; Rce1 inhib = i; eIF4H inh = -22; CSC inhib = 7; HIV Env fusion = -4; MT1-MMP act inh = 2; MT1-MMP act inh RFP = 5; Yeast UUG start = -6
# Entry for `COc1cc2nc(NC(=O)c3ccco3)sc(=O)c2cc1OC` = PABP polyA inh = 16; Rce1 inhib = i; eIF4H inh = 12; CSC inhib = 5; HIV Env fusion = 43; MT1-MMP act inh = 4; MT1-MMP act inh RFP = 8; Yeast UUG start = -7

# Next entries.
SMILES,PABP polyA inh,Rce1 inhib,eIF4H inh,CSC inhib,HIV Env fusion,MT1-MMP act inh,MT1-MMP act inh RFP,Yeast UUG start
COc1ccc(-c2cc(C(F)F)n3ncc(C(=O)N4CCN(C)CC4)c3n2)cc1,2,i,3,-6,-60,2,5,4
CC1(C)C2CC=C(/C=N/NC(=O)c3ccc(O)cc3)C1C2 (stereo not given),6,i,-12,-3,-2,1,5,nt
COc1ccc(NC(=O)CN(C)C(=O)CNC(=O)C2CCCCC2)cc1,13,i,-4,8,nt,2,-1,-12
COC(=O)Cc1c(C)nc2nc(-c3ccco3)[nH]n2c1=O,24,i,-4,-5,nt,1,5,-11
COC(C[C@H](O)CC(=O)[C@H](C)OCc1ccccc1)OC,-5,i,-1,nt,-2,-3,5,-24
CC1CCN(CCc2nc3cc(NC(=O)COc4ccc([N+](=O)[O-])cc4)ccc3n2C)CC1,-2,i,-7,6,0,2,2,-22
CC1c2c([nH]c3ccccc23)CCC1C(=O)O (stereo not given),-7,i,0,-13,2,0,4,-9
Cn1c(Cn2c(=O)sc3ccccc32)nnc1SCC(=O)Nc1cccc(F)c1,-4,nt,5,-26,11,0,-1,-16
CCOC(=O)NC(=O)CN1C(=O)NC(C)(c2ccccc2)C1=O (stereo not given),-2,i,11,-5,nt,10,-1,nt
Cn1nccc1C(=O)N1CCCC(C(=O)c2cccc3ccccc23)C1 (stereo not given),-13,i,2,-14,14,0,-5,nt
COc1ccc(NC(=O)/C=C/c2cc(Br)ccc2OC)cc1,6,i,-9,3,nt,1,-13,-13
O=C(NCC1CCCO1)c1cc(C(=O)c2ccc(Cl)cc2Cl)c[nH]1 (stereo not given),-2,i,6,-3,27,-3,-2,nt
Cc1cc(=O)n2[nH]cc(C(=O)O)c2n1,29,i,0,-7,nt,0,4,-25
O=C(O)c1ccc(NS(=O)(=O)c2ccc(NC(=O)c3ccccc3Cl)cc2)cc1,8,i,3,-37,-5,-1,-3,6
Cc1ccc(C2=NOC(=O)/C2=C\C=C\c2ccccc2)cc1,3,i,10,nt,-60,-8,4,-4

# 3 compounds out of the list above, sorted by the number in HIV Env fusion, ascending:
structure | HIV Env fusion
CC1(C)C2CC=C(/C=N/NC(=O)c3ccc(O)cc3)C1C2 (stereo not given) | -2
O=C(Nc1ccc(F)cc1F)N1CCN(C/C=C/c2ccccc2)CC1 | 4
COC(=O)c1sc2nc(CN3CCN(c4ccc(OC)cc4)CC3)[nH]c(=O)c2c1C | 9

# The listing continues.
SMILES,PABP polyA inh,Rce1 inhib,eIF4H inh,CSC inhib,HIV Env fusion,MT1-MMP act inh,MT1-MMP act inh RFP,Yeast UUG start
CN(C(=O)COC(=O)c1ccc(S(=O)(=O)N2CCCC2)cc1)c1ccccc1,14,i,0,-9,-7,-1,2,nt
CC(NC(N)=O)C(=O)NCC(=O)OCc1ccccc1 (stereo not given),-7,i,4,2,19,3,1,nt
COc1cc(/C=N/NC(=O)CN(Cc2ccccc2)S(=O)(=O)c2ccc3c(c2)OCCO3)ccc1O,-9,i,-7,4,4,3,0,nt
O=C(NCc1ccco1)c1nn2cccnc2c1Cl,4,i,6,-1,-1,4,-2,nt
Cn1c(C(=O)O)c(CC(=O)N2CCC(Cc3ccccc3)CC2)c2ccccc21,-6,i,-6,-8,nt,2,5,-3
OC(CNC1CCCCCC1)COc1cccc2ccccc12 (stereo not given),-7,i,-6,10,40,5,1,-2
COc1ccc(NC(=O)CCNC(=O)N2CC(=O)Nc3ccccc32)c(OC)c1,2,i,-5,-11,-3,3,3,-12
CC(C)[C@H](NC(=O)c1ccccc1)C(=O)NC1=NCCS1,nt,nt,nt,-7,-32,-1,4,-9
O=C(O)c1ccc2c(c1Sc1ccccc1)C(=O)c1ccccc1C2=O,32,i,21,-6,-1,nt,nt,nt
COc1ccc(C(C)C)cc1S(=O)(=O)N1CC(C)OC(C)C1 (stereo not given),-2,i,10,-6,6,10,0,6
COc1ccc(CC(=O)NCCc2cnc[nH]2)cc1,7,i,10,-4,-8,nt,nt,2
COc1ccc(C(=O)OCC(=O)Nc2ccc(F)c(F)c2)cc1OC,-8,i,-19,0,nt,-7,-4,-14
CC(C)Nc1nc2cccnc2s1,4,i,-4,-9,-8,-4,-2,nt
CCC(c1nnnn1Cc1ccccc1)N1CCN(c2ccc(OC)cc2)CC1 (stereo not given),-3,nt,0,-9,-10,-1,-1,nt
COCCN(C(=O)COC(=O)C1=COCCO1)c1c(N)n(Cc2ccccc2)c(=O)[nH]c1=O,9,i,-6,-3,1,2,3,6

# Copied from the list:
# CC(C)Nc1nc2cccnc2s1 in CSC inhib reads -9
# COCCN(C(=O)COC(=O)C1=COCCO1)c1c(N)n(Cc2ccccc2)c(=O)[nH]c1=O in PABP polyA inh reads 9
# CC(NC(N)=O)C(=O)NCC(=O)OCc1ccccc1 (stereo not given) in HIV Env fusion reads 19
# O=C(O)c1ccc2c(c1Sc1ccccc1)C(=O)c1ccccc1C2=O in CSC inhib reads -6
# O=C(NCc1ccco1)c1nn2cccnc2c1Cl in eIF4H inh reads 6

# Going on with the list.
SMILES,PABP polyA inh,Rce1 inhib,eIF4H inh,CSC inhib,HIV Env fusion,MT1-MMP act inh,MT1-MMP act inh RFP,Yeast UUG start
NC(=O)c1cccc(S(=O)(=O)N2CC(c3ccccc3)CC2=O)c1 (stereo not given),-2,i,6,-8,1,1,-5,-10
CCC(C)[C@H](NC(=O)N1CCn2c1nc1ccccc12)C(=O)NCC1CCCO1 (stereo not given in full),11,i,2,3,3,-2,-1,-13
Cc1occc1C(=O)Nc1nn[nH]n1,16,i,-1,-5,nt,4,4,nt
COc1ccccc1Nc1nc(N)nc(CN2CCOCC2)n1,3,i,-2,-11,-2,1,4,-4
Cc1cc(C(=O)O)cc(S(=O)(=O)NNC(=O)c2cccs2)c1C,1,i,-6,-3,-9,3,-1,-1
Cc1ccc(S(=O)(=O)N2CCOCC2)cc1NC(=O)CNCc1ccccn1,8,i,2,-7,-3,7,4,-25
COc1ccc(CCNCC(=O)Nc2c(C)cc(C)cc2C)cc1OC,8,nt,-10,6,-2,-1,2,-4
Cn1c(=O)c2c(nc(-n3ccnc3)n2Cc2ccc(Cl)cc2Cl)n(C)c1=O,4,i,-7,6,nt,3,-1,-18
COc1ccc(S(=O)(=O)N(C)c2ccc(C(=O)N3CCN(C)CC3)cc2)cc1,-14,i,-12,2,11,4,2,-7
O=C(COC(=O)CCN1C(=O)/C(=C\C=C\c2ccccc2)SC1=S)Nc1ccc(Br)cc1,5,i,13,28,34,2,9,nt
O=C(COC(=O)c1cc(S(=O)(=O)N2CCOCC2)c(Cl)cc1Cl)Nc1ncc(C(F)(F)F)cc1Cl,32,nt,3,-13,-4,-3,2,-12
COc1ccc(C2C3=C(CC(C)(C)CC3=O)Nc3c2c(=O)[nH]c(=O)n3Cc2ccccc2)cc1OC (stereo not given),-18,i,2,-8,-74,-2,-2,nt
Cc1ccc(OCCNC(=O)c2cc(C3CC3)nc3c2cnn3C(C)C)cc1,nt,nt,nt,2,nt,8,4,-4
CCCCCCOc1ccc(OCC(O)CN2C(=O)NC(C)(C)C2=O)cc1 (stereo not given),-6,i,-1,-4,nt,14,1,-13
COc1cc(SC)ccc1C(=O)OCc1nc2ccsc2c(=O)[nH]1,nt,i,nt,5,-20,0,3,-11
O=C(NCc1ccc(F)c(F)c1)C1Cc2c(-c3ccc4c(c3)OCO4)ccnc2O1 (stereo not given),nt,nt,nt,nt,-338,6,-12,-12
COc1nc(C#N)c(N2CCOCC2)o1,-8,i,-10,-4,-2,-1,-2,-19
CCCCn1nc(CC(=O)O)c2ccccc2c1=O,5,i,-4,3,-31,-1,1,-3
CCOc1ccc(NC(=O)c2ccc(Cl)c(NC(=O)c3ccco3)c2)cc1,-1,i,1,-7,-32,2,0,-18
COc1ccc(CC(=O)NNC(=O)c2ccccn2)cc1,-1,i,5,9,-13,2,0,-16
CN(C(=O)c1ccncc1)C1CC(C)(C)N(O)C(C)(C)C1,10,i,8,7,nt,-3,0,-21
CC(C)c1nc(SCC(=O)NC2CCCC2)c2c(=O)n(C)c(=O)n(C)c2n1,-2,i,-5,-5,24,-1,-4,-20
Cc1cc(C)cc(Nc2nc3c([nH]2)c(=O)n(C)c(=O)n3C)c1,7,i,-3,-16,27,-6,-10,-16
COc1ccccc1N(CC(=O)NC1CCCCC1)C(=O)CNC(=O)c1cccs1,3,i,4,nt,1,3,3,-2
CC1CCCCC12NC(=O)N(Cn1nnc3ccccc3c1=O)C2=O (stereo not given),-1,i,2,-4,nt,-2,0,-11
C=CCn1c(Cc2cccs2)nnc1SCC(=O)NC1CC1,4,i,-7,nt,-6,-3,-5,-1
COc1cc(/C=C2\SC(=S)N(NC(=O)c3ccncc3)C2=O)ccc1O,11,i,40,0,9,-35,66,nt
Cn1c(SCCC(=O)O)nnc1-c1ccncc1,-12,i,1,-17,-35,1,1,-5
C[C@@H]1CN([C@H](C)CO)C(=O)CCCn2nncc2CO[C@H]1CN(C)C(=O)c1ccccc1,nt,nt,nt,nt,-16,5,4,5&-3
O=S(=O)(c1ccc(Br)cc1)N1CCOC12CCCCC2,-2,i,-10,-9,24,-2,2,nt
CC1CC(C)(C)C2=NCCN21 (stereo not given),nt,nt,nt,nt,-37,2,-2,-14
O=C(CCN1CCN(Cc2ccccc2)CC1)Nc1cccc(Br)c1,-4,i,-4,16,16,-2,-3,-6
CSCC[C@H](NC(=O)COc1ccc(Cl)cc1Cl)c1nc2ccccc2[nH]1,-3,i,8,6,-15,-1,-6,6

# Screening results: PubChem, several laboratories

# Hits appear at their usual frequency; any-hit rate near 2.9%.
